# Marburg entry inh – blocks Marburg virus binding to or entry into cells | Marburg virus pseudotyped entry inhibition, cell reporter; control for the full effect not named in the record; about a third of the inactives were read at about 46 µM | Potency, µM (titrated, usually from 37.8 µM), inactives show at the top dose activity change, negative = inhibition, usual class: inhibitors | actives 1.8% (n = 300,000); active = well fitted inhibition curve with a large enough effect; inconclusive = small, poorly fitted or top-dose-only effect, or effect the other way; inactive = flat fitted curve, though single readings scatter; tested in HEK293 cells; about a fifth of its hits are not listed in these tables; note: % is set by controls: 0 for no effect and ±100 for the full control effect; luciferase read-out
# StopGo reporter – lowers the luciferase signal of an FMDV 2A StopGo reporter; human cells with a luciferase reporter of 2A StopGo recoding; control for the full effect not named in the record; Potency, µM (top dose mostly 57.9 µM), for inactives: at the highest dose signal change, negative = less light; actives 1.2% (n = 410,000); AID 1159524; active = well fitted falling curve with a large enough effect; inconclusive = small, poorly fitted or top-dose-only effect; inactive = no such curve, though single readings can be large or run the other way; tested in HEK293T cells; note: % is set by controls: 0 for no effect and ±100 for the full control effect; nearly all actives have a fitted effect of over 45% in size; luciferase light after 4 h
# Cruzain Triton – cruzain (T. cruzi) inhibition with detergent; P25779; purified cruzain, Z-FR-AMC fluorescence, 0.01% Triton; Potency, µM, for the others: max response, negative = inhibition, hits mostly inhibitors; actives 0.43% (n = 200,000); AID 1478;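 note: plate controls were neutral wells for no effect and buffer without enzyme for full effect; nearly all actives have a fitted effect of over 40% in size; top concentration of the series not given in the record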
# Target sequence (P25779 123-467 limits assumed): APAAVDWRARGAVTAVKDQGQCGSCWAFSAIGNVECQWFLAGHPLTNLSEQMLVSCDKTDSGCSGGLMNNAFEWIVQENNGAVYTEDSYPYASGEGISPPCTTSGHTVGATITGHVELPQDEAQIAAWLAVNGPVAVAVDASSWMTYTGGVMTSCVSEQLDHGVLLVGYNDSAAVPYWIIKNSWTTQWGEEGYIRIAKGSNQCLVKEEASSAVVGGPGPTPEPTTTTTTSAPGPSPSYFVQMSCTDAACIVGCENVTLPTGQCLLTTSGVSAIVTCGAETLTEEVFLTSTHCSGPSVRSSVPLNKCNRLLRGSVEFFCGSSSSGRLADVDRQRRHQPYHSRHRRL
#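 Read-out: AMC fluorescence (360 nm excitation, 450 nm emission), four reads over 2 min, first-to-third difference used. Conditions: cruzain 1.5 nM, Z-FR-AMC 2 uM, pH 5.5 acetate, 5 mM DTT, 0.01% Triton X-100.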
# LASV entry inh – blocks Lassa virus binding to or entry into cells; Lassa virus pseudotype entry inhibition, cell reporter; control for the full effect not named in the record; Potency, µM (titrated, usually from 37.9 µM), for inactives: at the top dose activity change, negative = inhibition, usual class: inhibitors; actives 1.2% (n = 300,000); AID 540256; active means well fitted inhibition curve with a large enough effect; inconclusive means small, poorly fitted or top-dose-only effect, or effect the other way; inactive means flat fitted curve, though single readings scatter; tested in HEK293 cells; note: % is set by controls: 0 for no effect and ±100 for the full control effect; nearly all actives have a fitted effect of over 50% in size; luciferase read-out
# RE007 growth inh – less growth of the S. pombe RE007 Vpr strain; S. pombe RE007 Vpr strain, BacTiter-Glo ATP luminescence, 24 h; control for the full effect not named in the record; Potency, µM (highest dose often 92.2 µM), without a hit: at the top dose activity change, negative = less growth; actives 0.21% (n = 360,000); active = well fitted falling curve with a large enough effect; inconclusive = small, poorly fitted or top-dose-only effect; inactive = no such curve, though single readings can be large or run the other way;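 note: % is set by controls: 0 for no effect and ±100 for the full control effect; nearly all actives have a fitted effect of over 50% in size; the assay follows cell death caused by Vpr and the record does not say whether a fall means rescue or toxicity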
#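 Fission yeast strain RE007, carrying one chromosomally integrated HIV-1 vpr copy, was seeded at OD 0.01 in PMG+AL medium with 23 nL pinned compound. After 24 h at 30 °C and 99% humidity, viability was read by BacTiter-Glo luminescence.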
# SARS PLpro yeast – inhibitors of SARS-CoV papain-like protease in yeast; AID 485353; Potency, µM (top dose mostly 32.9 µM), inactives show top-dose activity, positive = growth rescue; S. cerevisiae expressing SARS-CoV PLpro, growth rescue; control for the full effect not named in the record; actives 0.19% (n = 330,000); active means well fitted rising curve with a large enough effect; inconclusive means small, poorly fitted or top-dose-only effect; inactive means no such curve, though single readings can be large or run the other way; note: 0% is about no effect; nearly all actives have a fitted effect of over 55% in size; growth read by luminescence after 48 h
# Cruzain inh noDet – inhibitors of Trypanosoma cruzi cruzain without detergent; purified cruzain, Z-FR-AMC fluorescence, no detergent; Potency, µM, inactives show max response, negative = inhibition, usual class: inhibitors; actives 2.3% (n = 200,000); AID 1476;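 note: plate controls were enzyme without inhibitor for no effect and buffer without enzyme for full effect; nearly all actives have a fitted effect of over 40% in size; top concentration of the series not given in the record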
#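 Purified cruzain at 1.5 nM, pre-incubated 15 min with compound at room temperature in 100 mM sodium acetate pH 5.5, 5 mM DTT, 0.00005% Triton X-100. Reaction started with 2 uM Z-FR-AMC; AMC fluorescence increase over 60 s gives rate.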
# NS1 function inh – influenza NS1 inhibition. S. cerevisiae slowed by influenza A NS1, growth recovery by OD600. Potency, µM (highest dose often 46.1 µM), inactives show at the highest dose activity, positive = more growth. actives 0.4% (n = 270,000); active means well fitted rising curve with a large enough effect; inconclusive means small, poorly fitted or top-dose-only effect; inactive means no such curve, though single readings can be large or run the other way; note: nearly all actives have a fitted effect of over 50% in size
#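 Recovery from NS1-induced slow growth read by OD600 in budding yeast switched to galactose assay medium (pH 6.0, -URA) at 1:100 dilution. Compound 23 nl per well; the matching strain lacking NS1 serves as control.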
# The depositor's hits bear a star; u = inconclusive; x = not tested or not shown; & = joins results of further samples; [ ] = dose if it differs, or a comment. Unless noted, calls come from the whole dose curve; as a rule, active = well fitted curve in the direction sought with a large enough effect; inconclusive = small, poorly fitted or top-dose-only effect, or another doubt; inactive = no such curve, though single readings can be large; an effect the other way counts as inactive or inconclusive. Potency is the fitted concentration of half-maximal effect.
SMILES	Marburg entry inh	StopGo reporter	Cruzain Triton	LASV entry inh	RE007 growth inh	SARS PLpro yeast	Cruzain inh noDet	NS1 function inh
CC1=C(C(=O)N2CCCCC2)C(c2cccc(Cl)c2)n2c(nc3ccccc32)N1 (configuration not stated)	-18%[46.1 µM]	-7%	-4.2%	-11%[46.1 µM]	x	x	-3%	x
O=C(CCCC(=O)N(CC(=O)NC1CCCCC1)CC1CCCO1)Nc1ccccn1 (configuration not stated)	-2%&-2%	8%	1.3%	-1%	-1%	-5%	-3%	-6%
O=C1c2ccccc2C(O)(c2ccccc2)N1C1CC1 (configuration not stated)	-7%[46.1 µM]	7%	x	9%	-3%	0%	x	9%
O=C(N1CCN(c2ccccn2)CC1)N1c2ccccc2Sc2ccccc21	u	u	0.6%	u	-8%	-11%	9%	-118%
COc1cc(C)c(Cl)cc1S(=O)(=O)NCCc1c(C)[nH]c2ccccc12	-18%[46.1 µM]	33%[activator]	-14%	-12%[46.1 µM]	x	x	10%	x
Cc1ccc(/C=N\Nc2nc3ccc(Cl)cc3[nH]2)o1	-15%	32%[activator]	-14%	u	2%	-4%	-25%	-41%
COc1ccccc1CNC(=O)c1ccc2c(c1)CCN2S(=O)(=O)c1ccc(Cl)cc1	-4%[46.1 µM]	-15%	-0.2%	-1%[46.1 µM]	x	x	u	x
Cc1cc(C)cc(NC(=O)C(=O)NCC(c2cccnc2)N2CCN(c3ccccc3)CC2)c1 (configuration not stated)	x	-4%	-5.1%	-22%[46.1 µM]	x	x	-6%	x
COC(=O)c1cccc(NC(=O)CSc2nnc(COc3ccccc3)n2C)c1	8%&8%	-19%	-3.1%	10%	2%	2%	1%	-19%
CC(C)NC(=O)c1ccc2c(c1)N(CC(=O)N1CCOCC1)C(=O)C(C)(C)O2	10%	12%	5.2%	-16%	1%	-4%	-1%	-1%

# More entries:
SMILES	Marburg entry inh	StopGo reporter	Cruzain Triton	LASV entry inh	RE007 growth inh	SARS PLpro yeast	Cruzain inh noDet	NS1 function inh
CN(C)c1ccc(NC(=S)NC(=O)/C=C/c2ccco2)cc1	-3%[46.1 µM]	11%	x	7%[46.1 µM]	-9%	-3%	x	x
CC(=O)NC(C)c1nc2ccccc2n1Cc1ccccc1F (configuration not stated)	8%	-21%	-1.7%	9%	14%	2%	4%	-4%
COc1ccc(CCNC(=O)C(=O)NCc2ccccc2C)cc1OC	u	3%	x	-12%	-7%	0%	x	3%
CCN1C(=NCc2cccc(Cl)c2)N[C@@H](c2cccc(F)c2)C(C(=O)OC)=C1C	x	-3%	x	x	-5%	1%&4%	x	6%&1%
CC(C)N(Cc1ccccc1)C(=S)NC1CCCCC1	-10%[46.1 µM]	-6%	x	0%	-11%	5%	x	x
Cc1ccc(Cl)cc1NC(=O)Cn1c(=O)n(CCC(=O)NCc2ccc3c(c2)OCO3)c(=O)c2sccc21	-26%[46.1 µM]	12%	-0.9%	11%[46.1 µM]	x	x	-3%	x
O=c1c2c3c(sc2ncn1/N=C/c1ccncc1)CCCC3	34%[46.1 µM]	-14%	x	21%	-2%	-7%	x	x
Cc1ccc(C)c2sc(NC(=O)c3ccc(S(=O)(=O)N4CCCC4)cc3)nc12	x	0%	0.2%	u	x	x	u	x
CCc1ccccc1NC(=O)c1cc2nc(-c3ccc(OC)c(OC)c3)cc(C(F)(F)F)n2n1	8%[46.1 µM]	-11%	-1.3%	1%[46.1 µM]	x	x	5%	x
O=C(Nc1nnc(-c2ccc3c(c2)CCCC3)o1)c1ccc(Cl)cc1Cl	x	-17%	-12%	x	-11%	-22%	-17%	-41%

# 3 entries from above, with two lines to a compound.
# Order of values: Marburg entry inh, StopGo reporter, Cruzain Triton, LASV entry inh, RE007 growth inh, SARS PLpro yeast, Cruzain inh noDet, NS1 function inh
> Cc1ccc(Cl)cc1NC(=O)Cn1c(=O)n(CCC(=O)NCc2ccc3c(c2)OCO3)c(=O)c2sccc21
    -26%[46.1 µM], 12%, -0.9%, 11%[46.1 µM], x, x, -3%, x
> CN(C)c1ccc(NC(=S)NC(=O)/C=C/c2ccco2)cc1
    -3%[46.1 µM], 11%, x, 7%[46.1 µM], -9%, -3%, x, x
> CCN1C(=NCc2cccc(Cl)c2)N[C@@H](c2cccc(F)c2)C(C(=O)OC)=C1C
    x, -3%, x, x, -5%, 1%&4%, x, 6%&1%

# Going on with the list.
SMILES	Marburg entry inh	StopGo reporter	Cruzain Triton	LASV entry inh	RE007 growth inh	SARS PLpro yeast	Cruzain inh noDet	NS1 function inh
Cn1nnnc1SCc1csc(C2C(C#N)=C(N)OC3=C2C(=O)CCC3)c1 (configuration not stated)	9%[46.1 µM]	-13%	x	-7%[46.1 µM]	10%	1%	x	x
COc1ccc(NC(=O)c2cnc(SCC(=O)Nc3nc4ccc(C)cc4s3)n(C)c2=O)cc1	x	36%[activator]	-0.1%	2%[46.1 µM]	x	x	10%	x
CCC(=O)N/N=C(\C)CC(=O)Nc1ccc(Cl)cc1	27%	-16%	-2.0%	-8%	0%	6%	-16%	-5%
O=S(=O)(c1ccc(C2CCCCC2)cc1)N1CCOCC1	9%	u	-2.2%	8%	23%	-83%	9%	-13%
O=C(c1ccccc1)c1ccccc1C(=O)N1CCN(Cc2ccccc2F)CC1	8%	u	x	-2%	-5%	-1%	x	x
O=C(CSc1nc2ncc(Cl)cc2[nH]1)Nc1cccc(F)c1	x	0%	x	x	3%	0%	x	9%
O=C(O)CC1(CC(=O)NCc2ccc(Cl)cc2)CCCCC1	x	4%	x	x	1%	1%	x	-3%
CCCCC(=O)Nc1nn(C)c2nc3c(C)cccc3cc12	1%	-3%	0.9%	5%	-1%	-1%	u	3%
Cc1cc(N/N=C/c2ccccc2)nc(N2CCOCC2)n1	1.6µM*	9%	x	6%	0%	0%	x	-6%
CS(=O)(=O)Nc1cccc(-c2cn3c(n2)SCC3)c1	x	-1%	x	x	29%	3%	x	-7%

# Remaining list, next part
SMILES	Marburg entry inh	StopGo reporter	Cruzain Triton	LASV entry inh	RE007 growth inh	SARS PLpro yeast	Cruzain inh noDet	NS1 function inh
CCC(=O)Nc1nnc(S(=O)(=O)N2CCCCCC2)s1	x	u	-5.7%	-25%[46.1 µM]	12%	2%	-1%	1%
COC(=O)c1cc(C(=O)c2ccc(C(C)(C)C)cc2)c[nH]1	-27%[46.1 µM]	9%	x	u	24%	1%	x	2%
COc1ccc(NC(=S)NCCN2CCOCC2)c(OC)c1	26%	-14%	x	u	-1%	x	x	x
O=C(COc1cccnc1[N+](=O)[O-])N1CCN(S(=O)(=O)c2ccccc2)CC1	22%	-7%	0.0%	0%	-3%	11%	9%	5%
C1CCCC(NC2=NCCO2)CCC1	x	-12%	x	x	-4%	0%	x	-1%
O=S(=O)(Nc1cccc(-c2ccc(N3CCCCC3)nn2)c1)c1cccs1	x	47%[activator]	-5.4%	-29%[46.1 µM]	x	x	u	x
O=C(/C=C/c1ccc(Cl)cc1Cl)NC(=S)Nc1ccc(CN2CCOCC2)cc1	u	-28%	2.0%	-1%	2%	-4%	u	u
O=C(Nc1nnc(C2=COCCO2)o1)c1cccc(C(F)(F)F)c1	-15%	1%	x	u	3%	-3%	x	-24%
Cc1ccc(-n2nnc(-c3cc4ccccc4n3C)n2)cc1	x	73%[activator]	x	x	-8%	-1%	x	u
CC1=NOC2(C1)/C(=N/O)CCC/C2=N\O (configuration not stated)	-13%	-24%	-0.6%	3%	16%	9%	2%	-6%

# (more compounds)
SMILES	Marburg entry inh	StopGo reporter	Cruzain Triton	LASV entry inh	RE007 growth inh	SARS PLpro yeast	Cruzain inh noDet	NS1 function inh
O=C(/C=C/c1cccs1)NC1CCS(=O)(=O)C1 (configuration not stated)	18%[14.2 µM]	4%	x	5%	5%	1%	x	2%
O=C(COC(=O)c1ccccc1Br)Nc1cccnc1Cl	9%	11%	x	u	18%	1%	x	x
CCN1CCCC1CNC(=O)c1cc2c(C)nc3ccccc3c2o1 (configuration not stated)	-36%	-16%	7.0%	8%	-23%	8%	-2%	5%
O=C(CCNC(=O)c1ccc(Cl)cc1)Nc1cccc(S(=O)(=O)N2CCCCCC2)c1	u	u	x	u	-5%	0%	x	x
Cc1cccc(NC(=O)c2cc(=O)c3ccccc3o2)n1	16%	0%	4.7%	12%	-3%	0%	9%	-18%
CCOC(=O)C(NC(=O)CCl)(Nc1ccc(C(O)(C(=O)OCC)C(F)(F)F)cc1)C(F)(F)F (configuration not stated)	5%	0%	0.6%	0%	1%	-5%	9%	-6%
CCOC(=O)c1c(S(=O)(=O)N2CCN(C3CCCCC3)CC2)c(C)n(C)c1C	x	10%	x	x	4%	2%	x	-10%
Cc1ccccc1CC1(CO)CCCN(C(=O)CCC(=O)c2ccccc2)C1 (configuration not stated)	u	u	x	u	2%	5%	x	-6%
O=Cc1cn(CC(=O)NCC2CCCO2)c2ccccc12 (configuration not stated)	-1%	3%	0.2%	-13%	23%	8%	-1%	2%
Cn1cccc1/C=N/NC(=O)c1ccn[nH]1	u	45%[activator]	-6.8%	u	-4%	3%	0%	6%
COc1cccc(Cc2nc3ccccc3nc2SCC(=O)N2CCc3ccccc32)c1	x	12%	1.3%	-11%[46.1 µM]	x	x	-5%	x
O=C(CN1CCc2cc3c(cc2C1)OCCCO3)Nc1ccccc1	x	-30%	x	x	5%	-9%	x	-4%

# No new results follow: 3 of the compounds above.
SMILES	Marburg entry inh	StopGo reporter	Cruzain Triton	LASV entry inh	RE007 growth inh	SARS PLpro yeast	Cruzain inh noDet	NS1 function inh
Cc1cccc(NC(=O)c2cc(=O)c3ccccc3o2)n1	16%	0%	4.7%	12%	-3%	0%	9%	-18%
CCOC(=O)C(NC(=O)CCl)(Nc1ccc(C(O)(C(=O)OCC)C(F)(F)F)cc1)C(F)(F)F (configuration not stated)	5%	0%	0.6%	0%	1%	-5%	9%	-6%
CCOC(=O)c1c(S(=O)(=O)N2CCN(C3CCCCC3)CC2)c(C)n(C)c1C	x	10%	x	x	4%	2%	x	-10%
